Arbovirus anti = antivirals against arbovirus infection, primary screen, cell-based, full library, 10K replicate subset; 0.37% of 200,000 active; inhibition, % at 10 µM; arbovirus infection cell-based antiviral screen;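 active = inhibition from about 30%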;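 note: bluetongue infection of BSR cells; cell survival read as ATP light after 72 h; 0% = infected wells without compound and 100% = uninfected wells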
Mtb H37Rv = M. tuberculosis H37Rv growth inhibitors, H37Rv strain (AID 1626); 0.95% of 220,000 active; inhibition, % at 10 µM; hits with a dose series show IC50 in µM; M. tuberculosis H37Rv growth inhibition; higher % means a stronger effect;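 active = confirmed in a dose series; inconclusive = inhibition above 80% but not taken into the dose series; inactive = below 80% or under 30% at every dose of the series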;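 note: bacteria incubated seven days before Alamar blue readout; 0% = bacteria only wells and 100% = bacteria with antibiotic wells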
YopH PTP inh = YopH tyrosine phosphatase inhibitors, primary screen, biochemical, fluorescence Ex485/Em525; inhibition, %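 (about 10 µM by stock and volumes)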; 0.16% of 140,000 active; YopH tyrosine phosphatase [Yersinia enterocolitica];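 active = inhibition of 50% or more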;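 note: controls were vehicle for no effect and minimum signal wells for full effect; inactives centre near -20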
Mtb bLac sens = beta-lactam sensitization of Mtb H37Rv, H37Rv; M. tuberculosis H37Rv growth with meropenem, percent inhibition; hits of this screen are not shown here; inhibition, % at 25 µM; 0.27% of 330,000 active; AID 434955, 2010;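 active = about 74% or more and at least 40 points above the plate without the antibiotic, then above 30% in a dose series; inconclusive = first-round hits that could not be retested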;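 note: growth measured after seven days incubation then overnight dye step; 0% = bacteria only wells and 100% = bacteria with antibiotic; twin plates without the antibiotic show which effects depend on it; some results filed as inactive read as strong as hits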
RecA splice inh = Mtb RecA intein splicing inhibitors, primary screen, biochemical, fluorescence, HTS. Protein RecA (Mycobacterium tuberculosis (strain ATCC 25618 / H37Rv)), P9WHJ3. 0.75% of 290,000 active. cell-free RecA intein splicing. inhibition, %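 (about 9 µM by stock and volumes)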; in the data active = inhibition above about 30%; inconclusive = no clear call, values can overlap the other calls;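 note: 0% = vehicle wells and 100% = reference inhibitor control wells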
Target sequence (P9WHJ3 whole entry, looked up, canonical isoform): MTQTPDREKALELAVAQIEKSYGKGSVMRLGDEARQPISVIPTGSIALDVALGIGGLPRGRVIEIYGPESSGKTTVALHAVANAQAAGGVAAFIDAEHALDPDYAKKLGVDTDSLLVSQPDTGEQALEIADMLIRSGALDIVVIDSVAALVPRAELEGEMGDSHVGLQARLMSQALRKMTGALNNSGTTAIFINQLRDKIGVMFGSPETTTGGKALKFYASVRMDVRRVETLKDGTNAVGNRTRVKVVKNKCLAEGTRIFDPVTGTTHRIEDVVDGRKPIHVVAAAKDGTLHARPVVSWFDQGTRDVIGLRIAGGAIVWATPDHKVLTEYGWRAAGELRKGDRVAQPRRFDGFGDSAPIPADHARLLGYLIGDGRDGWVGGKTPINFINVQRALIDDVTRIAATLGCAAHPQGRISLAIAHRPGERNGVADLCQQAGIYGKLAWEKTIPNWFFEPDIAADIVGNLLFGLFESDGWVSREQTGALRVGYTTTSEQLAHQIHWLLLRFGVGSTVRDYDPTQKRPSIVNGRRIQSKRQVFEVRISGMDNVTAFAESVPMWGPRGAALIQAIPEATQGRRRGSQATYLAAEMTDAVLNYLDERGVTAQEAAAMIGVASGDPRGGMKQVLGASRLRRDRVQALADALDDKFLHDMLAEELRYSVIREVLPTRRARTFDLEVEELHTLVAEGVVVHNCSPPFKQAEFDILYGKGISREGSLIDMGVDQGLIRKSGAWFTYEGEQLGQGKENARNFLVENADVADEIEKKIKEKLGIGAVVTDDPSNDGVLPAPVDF
Arbovirus anti repeat = further read-out of Arbovirus anti, marked with its call; inhibition, %; measured here: 10K subset replicate screen; many hits read low in the repeat;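 first of two repeat runs on a subset; 0% = infected and 100% = uninfected wells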
Numbers without * were called inactive; ? = inconclusive; / = no result given.

SMILES	Arbovirus anti	Mtb H37Rv	YopH PTP inh	Mtb bLac sens	RecA splice inh	others
N#C/C(=C\Nc1ccc2c(c1)OCCO2)c1nc(-c2ccccc2)cs1	5	-1%	-27	1	1.0
CCOC(=O)c1ccc(NC(=O)C2=C(C)Nc3nc(CCCO)nn3C2c2cccc(C)c2)cc1 (centres undefined)	10	7%	-5	-2	0.0
CCc1ccc(-c2cc(N)n(-c3ccccc3)n2)cc1	-11	12%	/	/	3.4
CCCCc1ccc(-c2c(C#N)c(N)nc3c2CCCC3)s1	3	10%	-31	2	-0.3
O=C(c1cc2cccc([N+](=O)[O-])c2oc1=O)N1CCOCC1	/	-5%	/	10	2.1
CCC(=O)Nc1ccc(Cl)c(NC(=O)c2cccc(OC)c2)c1	-2	8%	/	4	-0.3
CCOC(=O)NN1C(=O)c2ccccc2NC1C (centres undefined)	3	8%	/	-3	-4.0
CCOC(=O)c1sc2nc(COC(=O)c3c(F)cccc3F)[nH]c(=O)c2c1C	6	73%	/	86	-2.0
O=C(CSC(=S)N1CCCC1)N1CCN(S(=O)(=O)c2ccccc2F)CC1	/	/	/	-8	-2.4
CC1=NN(C(N)=S)C(=O)C1N=Nc1ccccc1O (centres undefined)	/	/	/	-4	1.0

Fetched by compound from the list above, 7 records:
SMILES	Arbovirus anti	Mtb H37Rv	YopH PTP inh	Mtb bLac sens	RecA splice inh	others
CC1=NN(C(N)=S)C(=O)C1N=Nc1ccccc1O (centres undefined)	/	/	/	-4	1.0
N#C/C(=C\Nc1ccc2c(c1)OCCO2)c1nc(-c2ccccc2)cs1	5	-1%	-27	1	1.0
CCc1ccc(-c2cc(N)n(-c3ccccc3)n2)cc1	-11	12%	/	/	3.4
CCOC(=O)NN1C(=O)c2ccccc2NC1C (centres undefined)	3	8%	/	-3	-4.0
CCOC(=O)c1sc2nc(COC(=O)c3c(F)cccc3F)[nH]c(=O)c2c1C	6	73%	/	86	-2.0
CCOC(=O)c1ccc(NC(=O)C2=C(C)Nc3nc(CCCO)nn3C2c2cccc(C)c2)cc1 (centres undefined)	10	7%	-5	-2	0.0
O=C(CSC(=S)N1CCCC1)N1CCN(S(=O)(=O)c2ccccc2F)CC1	/	/	/	-8	-2.4

Next part:
SMILES	Arbovirus anti	Mtb H37Rv	YopH PTP inh	Mtb bLac sens	RecA splice inh	others
Cc1nnc(SCC(=O)NC(C)(C)C)n1NCc1cccc(Br)c1	/	/	/	2	-2.0
COc1ccc(C(=O)COC(=O)COc2ccc(C)c(C)c2)cc1	-3	-1%	-7	2	-2.7
CCS(=O)(=O)N1CCN(Cc2ccccc2OC)CC1	-1	6%	-13	8	-1.0
Cc1cccc(N2CCN(C(=O)C3CCN(S(=O)(=O)c4cnc[nH]4)CC3)CC2)c1C	-1	-5%	-14	-9	-4.2
C=CCn1c(C)csc1=Nc1ccccc1C	21	18%	/	0	-0.9
N#Cc1ccc(OCC(O)CS(=O)(=O)c2ccccc2)cc1 (centres undefined)	8	7%	/	-1	-0.7
Cc1cc2cc(C)c(NCCNC(=O)c3ccccc3Cl)nc2cc1C	17	24%	/	8	6.7
CSc1ccc(C(=O)C2CCCN(Cc3ccn[nH]3)C2)cc1 (centres undefined)	/	3%	/	-12	0.4
Cc1onc(-c2ccccc2)c1C(=O)N=C(N)c1ccc(C(F)(F)F)cc1	/	-9%	/	0	-2.0
Cc1nc(-c2ccc(Cl)cc2)sc1C1(C)CC(c2ccc(C#N)cc2)=NO1 (centres undefined)	/	13%	/	95	6.4
Nn1c(COc2ccccc2F)nnc1SCC(=O)NC1CC1	/	/	/	-16	0.2
CC1CN(Cc2ccc(C#N)cc2Cl)CC(C)O1 (centres undefined)	2	-4%	-43	7	-4.8
Cc1ccc(/C=N/NC(=O)Cc2c[nH]c3ccccc23)c(C)c1	-14	/	-5	-5	3.9
CC(=O)Nc1ncc(Cc2ccc(Cl)cc2Cl)s1	-15	11%	/	4	2.1
CCC(C)[C@H]1CNCCN1CCCc1cc(OC)c(OC)c(OC)c1 (some centres undefined)	/	/	/	-8	-0.9
O=C(CCSCCC(=O)NCc1cccs1)NCc1cccs1	1	-23%	-34	5	0.9	Arbovirus anti repeat=4
CC(=O)CCc1c(C)c2cc(C)ccc2[nH]c1=O	3	-6%	-14	-6	-1.5
CCn1c(SC(=O)NC2CCCCC2)nnc1-c1cccs1	-3	4%	-34	-4	16
CCOC(=O)CSc1nc(-c2ccccc2)nc2ccc(F)cc12	4	-4%	-13	-1	0.1
COc1ccc(NC(=O)c2cc3c(-c4ccc(OC)c(OC)c4)nn(C)c3s2)cc1OC	28	-3%	-24	-6	4.9
C=CCSc1nnc2c(n1)-c1cccc3cccc-2c13	/	-4%	/	49	3.5
CSCC(=O)N1CCC(n2nccc2NC(=O)c2ccc3c(c2)OCO3)CC1	/	/	/	-14	-0.9
O=C(O)CCc1ccc(-c2ccc(Br)cc2)n1NC(=O)c1ccc([N+](=O)[O-])cc1	/	3%	/	5	4.9
CN(C)C(=O)c1ccc(NC(=O)c2sccc2-c2ccccc2)cc1	/	/	/	-2	1.3
CCn1c(=O)c([N+](=O)[O-])c(NCCc2ccccc2)c2ccccc21	4	-4%	-35	-8	-57
CCOC(=O)c1nnn(CC(=O)NC(=O)Nc2ccccc2)c1C(=O)OCC	-8	-2%	/	-4	-0.7
COC(=O)/C=c1\[nH]c2nnc(C)n2c1=O	/	-9%	/	-8	-1.3
O=C(OCC(=O)N1CCN(C(=O)c2ccco2)CC1)c1ccccc1OCc1ccc(Cl)cc1	8	-1%	-40	-4	5.2
O=C(O)CCC(=O)NNC(=O)COc1cccc(Cl)c1	1	4%	/	-2	5.7
O=C(c1ccc(S(=O)(=O)N2CCCCC2)cc1)N1CCN=C1SCc1cccnc1	-2	5%	-26	0	/	Arbovirus anti repeat=-8
Cc1nnc(Sc2nc3c(c(=O)[nH]c(=O)n3C)n2Cc2ccccc2)s1	4	2%	/	4	-0.2
CCOC(=O)c1cc(C(=O)Nc2sc3c(c2C#N)CCCC3)nn1C	/	/	/	-1	0.5
CC(C)(C)OC(=O)NC(Cc1ccccc1)C(=O)NC(CSC1CCCCO1)C(=O)NN (centres undefined)	/	/	/	-8	-1.1
COC(=O)c1ccc2c(=O)[nH]c(CSc3nc(C)cs3)nc2c1	23	-4%	/	30	-2.0
Cc1cccc(C)c1NC(=O)/C(C#N)=C/c1ccsc1	4	1%	-12	84	5.0
CC12CCC(O)CC1=CCC1C2CCC2(C)C1CCC21CCC(=O)O1 (centres undefined)	11	-4%	-17	-8	2.0
CCN(CC)C(=O)C(Sc1ccccc1)c1ccccc1 (centres undefined)	1	1%	-17	2	0.2
Cc1ccccc1CN1CCN(C(C)C(=O)NCc2ccccc2)CC1 (centres undefined)	/	/	/	2	-0.2
Cc1nc(CC(=O)N/N=C/c2ccc(OCC(=O)O)cc2)cs1	/	2%	/	-4	-2.8
CC1(C)ON(C2CCCCC2)[C@H]2c3nc4ccccc4n3C[C@H]21	/	/	/	0	-0.9
CC1C(=O)Nc2ccc(S(=O)(=O)NCc3ccc(Cl)cc3)cc2NC1=O (centres undefined)	/	/	/	9	0.6
CCOC(=O)CC(NC(C)=O)c1ccc([N+](=O)[O-])cc1 (centres undefined)	9	0%	-8	0	2.4
Fc1ccc(NC(=S)NCCN2CCOCC2)c(F)c1F	2	1%	/	2	7.8
CCOC(=O)CNC(=O)c1c(C)nn(-c2ccccc2)c1Cl	2	-1%	-23	2	-1.2
Cc1cccc(NC(=O)CSc2ccc(-c3ccc4c(c3)OCO4)nn2)c1C	-31	3%	-18	-1	0.3
CCOc1ccc(CCNC(=O)c2ccc(CS(=O)Cc3cccc(Cl)c3)o2)cc1 (centres undefined)	/	/	/	0	1.6
CCC(=O)N=c1sc2cc([N+](=O)[O-])ccc2n1CCOC	5	2%	-12	-1	-0.5
O=C(Oc1c(Cl)cc(Cl)c2cccnc12)c1cccs1	-12	?	-1	98	12
Cc1ccc(-n2c3c(cc(C(=O)NC4CCSC4=O)c2=O)C(=O)CCC3)cc1 (centres undefined)	0	-10%	-19	-1	/
COc1ccc(NS(=O)(=O)c2cccc(C(=O)NNC(=O)CNC(=O)c3ccccc3F)c2)cc1	/	/	/	-16	0.9
Next section:
SMILES	Arbovirus anti	Mtb H37Rv	YopH PTP inh	Mtb bLac sens	RecA splice inh	others
CC1CCCN(C(=O)c2nn(C)c3c2CSc2ccccc2-3)C1 (centres undefined)	/	/	/	-8	1.4
Cn1c(N)c(C(=O)COC(=O)C2CC(=O)N(Cc3ccccc3)C2)c(=O)n(C)c1=O (centres undefined)	3	0%	/	-3	3.1
O=C(Cc1ccccc1)N1CCN(Cc2ccc([N+](=O)[O-])cc2)CC1	8	-4%	-4	-5	-0.7
Cc1cccc(-n2nnnc2SCC(=O)NCC2CCCO2)c1 (centres undefined)	/	-7%	/	-13	-4.1
CC(C)(C)OC(=O)C(C)(C)O/N=C(\C(=O)O)c1csc(N)n1	7	-7%	/	5	-0.1
CCCCCCn1c(=O)c(-c2ccccc2)c(O)c2ccccc21	54*	0%	-19	1	3.9
CC(OC(=O)c1ccc(Cl)c(S(=O)(=O)N2CCc3ccccc32)c1)C(=O)Nc1ncc(Cl)cc1Cl (centres undefined)	8	-6%	-24	0	0.4
O=C(CSc1nc(-c2ccccc2)cs1)Nc1nccs1	10	4%	-11	-10	1.1
COc1cc(NC(=O)c2ccc(C)cc2C)ccc1NC(=O)c1cccs1	/	/	/	-6	-2.4
C#Cc1ccc([C@H]2C=C(C(=O)OCC=C)O[C@@H](OCC)[C@@H]2CCCO)cc1	7	10%	/	6	5.7
CN(C)c1ccc(/C=N/NC(=O)c2ccc(NC(=O)c3ccccc3)cc2)cc1	/	-4%	/	2	/
CN=C1S/C(=C\c2ccc(Sc3ccc(Cl)cc3)o2)C(=O)N1C	5	-2%	-16	/	/
Cc1ccc(C(=O)N/C(=C\c2cn(C)c3ccccc23)C(=O)N2CCOCC2)cc1	/	/	/	-2	-2.3
CCCCNc1c(-c2ccc(SC(C)CC)cc2)nc2ccccn12 (centres undefined)	/	/	/	99	-41
O=C(COC(=O)c1ccncc1)c1ccc(Cl)c(Cl)c1	1	-5%	/	-2	1.6
O=C(Nc1nc(-c2cccnc2)cs1)c1ccccc1[N+](=O)[O-]	-3	-7%	/	-5	-1.7
CC1=C2C(CCS2(=O)=O)CC2(C1)C(=O)OC(C)(C)OC2=O (centres undefined)	9	-7%	-22	8	1.0
COc1ccccc1-c1cc(C(=O)N2CCN(S(=O)(=O)c3ccc(C)cc3)CC2)[nH]n1	/	/	/	-4	-0.3
CCN(Cc1ccncc1)C(=O)c1cccc(S(=O)(=O)N2CCOCC2)c1	8	-12%	-17	-16	-5.7	Arbovirus anti repeat=4
COc1ccc(N2CCC(CNS(=O)(=O)c3cccc(C(F)(F)F)c3)C2)cc1 (centres undefined)	9	-1%	0	-5	1.6
COc1ccc(NC2c3ccccc3C(=O)N2c2cccnc2)cc1 (centres undefined)	/	-8%	/	-7	0.8
C=CCN1C(=O)CN=C1Nc1cccc(C)c1	11	-1%	-47	-9	-1.9
COc1nc(Nc2ccc(OC)c(Cl)c2)nc(OC)n1	-4	3%	-17	3	5.6
Cc1cc(Nc2ccc(Cl)cc2)n2nnnc2n1	-2	/	-40	-9	-2.5
Cc1cc(=O)[nH]c(SCC(=O)N2CCC(Cc3ccccc3)CC2)n1	5	-1%	/	0	6.9
CS(=O)(=O)c1ccc(NC(=O)C2CC(=O)N(c3ccc4c(c3)OCCO4)C2)cc1 (centres undefined)	/	/	/	3	-1.8
COc1cccc(N(C(=O)Cc2cccs2)C(C(=O)NC2CCCC2)c2ccncc2)c1 (centres undefined)	/	/	/	-3	1.6
C=CCN(C(=O)CCC(=O)O)C1CC(=O)N(c2ccc(OC)cc2)C1=O (centres undefined)	9	-2%	-4	0	-6.5
Cc1ccc(OCCCC(=O)N2CCOCC2)cc1	5	-1%	18	23	0.3
O=C(CSCc1ccc([N+](=O)[O-])cc1)Nc1ccc(S(=O)(=O)N2CCCCCC2)cc1	-1	-2%	-23	-2	2.1
COCCN1C(=O)N[C@@H](c2cccc(F)c2)C(C(=O)OC)=C1C	/	-8%	/	-10	-1.9
CCOC(=O)N1CCN(Cc2nc(-c3cccc(Cl)c3)no2)CC1	10	21%	/	3	1.0
CCC(=O)Nc1ccc(SC#N)cc1C	-15	4%	-8	6	-4.5
CCOC(=O)c1c(C)[nH]c(C=Nc2ccccc2)c1O	4	-4%	-63	/	-2.9
COC(=O)COc1ccc2oc(=O)cc(-c3cc4ccccc4o3)c2c1	/	/	/	83	0.9
COc1ccc(Cc2nnc(SCC(=O)c3ccc(OC)cc3)o2)cc1	4	-1%	-7	72	6.4

Compound activity: PubChem, several laboratories

An excerpt; the hit share may differ from the screen's.
